# Beta cell apopt = inhibitors of cytokine-induced beta cell apoptosis, primary screen, luminescence; INS-1E cytokine-induced death, ATP luminescence, 48 h; percent of positive-control rescue, neutral wells zero; protection from apoptosis, % (no concentration beside the values); actives 0.8% (n = 300,000);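 active = all replicates at 75% or more, or half of them and the mean; inconclusive = half reach 75% but not the mean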;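 note: 0% = cytokine-treated negative control wells and 100% = positive control rescue; higher means more ATP so stronger rescue from cytokine killing; wells of about 40 µL received 100 nL stock; the first replicate is given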
# Vif TR-FRET = inhibitors of Vif binding to APOBEC3G peptide, primary screen, biochemical, TR-FRET, GST-Vif 1-94, biotin-A3G peptide, dose response retest (AID 1117319). actives 0.57% (n = 260,000). TR-FRET GST-Vif / biotin-A3G peptide binding; higher % means a stronger effect; test concentration not given here; strong numbers were not always called active. inhibition, %; hits with a dose series show IC50 in µM. Virion infectivity factor (Human immunodeficiency virus type 1 group M subtype B (isolate …;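 active = above the screen mean plus three standard deviations and confirmed in dose response; inconclusive = results disagree or hit not tested in dose response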;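 note: Vif residues 1-94 fused to GST binding biotinylated APOBEC3G peptide 110-148; 0% = full assay without inhibitor and 100% = GST in place of GST-Vif; retest series ran down from 100 µM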
# Bfl-1 A1 inh = caspase 3/7 activation in MEF A1-2A-BIM cells, primary screen, A1 inhibitor project, cell-based, luminescence, HTS. Caspase-Glo 3/7 luminescence, 3 h; percent of clofoctol response, vehicle zero. caspase activation, % (concentration not given with the values). actives 0.066% (n = 330,000). AID 2462, 2010;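 active = over half of replicate activation scores above 10%, or exactly half above 10 with the replicate mean above 10; inconclusive = replicate mean below 10 yet half the replicates above 10; inactive = over half of replicates below 10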;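 note: wells of about 30 µL received 50 nL stock; many hits fall short of the cut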
# MLL AF4-AF9 inh = inhibitors of AF4 peptide binding to AF9, primary screen, biochemical, AlphaScreen, biotin-AF4 peptide, FLAG-AF9, single point. Protein AF-9 (Homo sapiens), P42568. inhibition, % at 10 µM. actives 0.47% (n = 350,000);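 active = every replicate reaching a set inhibition limit, whatever the replicate mean, cut at about 25% in these data; inconclusive = mean inhibition reaches that limit but some replicates miss it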;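 note: 0% = plate neutral control median and 100% = total signal loss; the record names both 10 and 1 µM as test concentration; the first replicate is given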
# T cruzi repl = inhibitors of intracellular T. cruzi growth, primary screen, luminescence, NIH3T3 host cells | T. cruzi beta-gal in NIH3T3, 90 h | inhibition, % (test concentration not listed) | actives 1.4% (n = 300,000) | AID 1885, 2009;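 active = mean inhibition across valid replicates above about 55%, limit read from the data; inconclusive = mean below that limit but half or more replicates reach it; inactive = mean below it, under half of replicates reach it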;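 note: signal also drops with host cell toxicity which is not excluded here; 0% = plate median of DMSO wells and 100% = zero luminescence signal; higher percent means less beta-gal luminescence so fewer parasites; stock transfer was 50 nL into about 50 µL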
# Calb FLC = C. albicans growth inhibition with fluconazole, primary screen, CaCi-2 strain, Alamar Blue fluorescence | growth inhibition, % (test concentration not listed) | actives 0.57% (n = 300,000) | C. albicans CaCi-2 (fluconazole-resistant clinical isolate) + fluconazole, 48 h;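 active = most replicates above 75%; inconclusive = exactly half above 75%; inactive = most below 75%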;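 note: all wells also contain fluconazole at 8 µg/ml as a sub-toxic cotreatment; 0% = median of DMSO wells and 100% = median of geldanamycin control wells; wells of about 8 µL received 7.5 nL stock; the first replicate is given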
# RanGTP-Impb inh = inhibitors of RanGTP-importin-beta interaction, primary screen, biochemical, FRET, CFP-Ran, YFP-importin-beta, homogeneous; Ran GTPase (GTP-bound) - importin-beta complex; cell-free CFP-Ran/YFP-importin-beta FRET ratio; inhibition, % (no concentration beside the values); actives 1.1% (n = 300,000); AID 2216, 2009;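 active = most replicates above 15%; inconclusive = exactly half above 15%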;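 note: 0% = DMSO wells and 100% = Ran loaded with GDP instead of GTP; wells of about 40 µL received 100 nL stock; the first replicate is given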
# LANA-H2B inh = blockers of LANA interaction with H2A/H2B – biochemical, FP readout, HTS, primary screen; cell-free LANA-H2A/H2B peptide, fluorescence polarization; inhibition, % (test concentration not listed); actives 0.6% (n = 320,000); AID 2629, 2010; in the data active = inhibition mostly above about 10%, no sharp cut-off; inactive = mostly below about 6.7%;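 note: stock transfer was 7.5 nL into about 10 µL; 0% = median of vehicle wells and 100% = median of positive control wells; one replicate is shown; the record names a cut of 25% in any replicate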
# Target sequence (Q9QR71 whole entry, looked up): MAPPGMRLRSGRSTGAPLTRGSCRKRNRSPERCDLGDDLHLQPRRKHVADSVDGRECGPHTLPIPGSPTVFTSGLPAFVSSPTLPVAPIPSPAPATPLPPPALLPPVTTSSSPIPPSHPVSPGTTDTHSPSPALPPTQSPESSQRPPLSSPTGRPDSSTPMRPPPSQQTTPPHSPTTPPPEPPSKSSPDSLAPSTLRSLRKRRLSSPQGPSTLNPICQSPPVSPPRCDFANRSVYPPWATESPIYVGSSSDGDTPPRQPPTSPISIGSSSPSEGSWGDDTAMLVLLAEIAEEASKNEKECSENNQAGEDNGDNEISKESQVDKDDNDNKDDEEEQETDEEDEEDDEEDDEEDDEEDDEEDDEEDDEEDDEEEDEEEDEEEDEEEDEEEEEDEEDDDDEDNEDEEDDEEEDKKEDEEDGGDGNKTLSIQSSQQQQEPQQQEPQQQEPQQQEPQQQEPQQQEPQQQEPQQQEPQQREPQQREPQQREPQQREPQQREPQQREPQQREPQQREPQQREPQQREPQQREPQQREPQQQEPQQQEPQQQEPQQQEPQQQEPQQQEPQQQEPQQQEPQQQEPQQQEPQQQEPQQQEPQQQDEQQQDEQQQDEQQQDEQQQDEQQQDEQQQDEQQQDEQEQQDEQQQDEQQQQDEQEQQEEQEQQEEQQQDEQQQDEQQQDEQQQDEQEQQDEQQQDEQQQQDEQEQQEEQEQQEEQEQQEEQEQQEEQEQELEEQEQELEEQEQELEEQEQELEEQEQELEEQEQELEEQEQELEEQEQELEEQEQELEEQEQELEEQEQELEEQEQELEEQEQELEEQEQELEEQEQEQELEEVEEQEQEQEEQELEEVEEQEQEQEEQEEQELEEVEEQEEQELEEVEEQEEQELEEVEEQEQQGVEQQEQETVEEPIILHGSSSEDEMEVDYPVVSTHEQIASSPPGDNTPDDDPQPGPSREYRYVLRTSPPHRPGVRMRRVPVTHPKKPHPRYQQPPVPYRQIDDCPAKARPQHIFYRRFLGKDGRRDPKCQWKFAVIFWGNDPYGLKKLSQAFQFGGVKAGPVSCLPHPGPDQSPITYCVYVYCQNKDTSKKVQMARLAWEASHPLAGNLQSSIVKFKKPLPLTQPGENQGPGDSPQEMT
# * marks the source's active call; other numbers are inactive results; u = inconclusive; x = no result given; & = joins results of further samples.
SMILES,Beta cell apopt,Vif TR-FRET,Bfl-1 A1 inh,MLL AF4-AF9 inh,T cruzi repl,Calb FLC,RanGTP-Impb inh,LANA-H2B inh
CCOC(=O)c1cc2c(=O)n3ccccc3nc2n(CCOC)c1=NC(=O)c1ccncc1,-5,15%,1.4,x,14,114*,96*,0.9
COc1ccc(C2(C(=O)Nc3cc(C)on3)CCOCC2)cc1,-1,15%,0.3,x,-13,4,-0.5,9.0
CC(=O)c1c(C)n(C)c2ccc(OC(=O)c3ccc([N+](=O)[O-])cc3)cc12,6,6%,0.2,1.8,5,19,3.0,-0.5
N#Cc1ccc(OCc2nnc(SCC(=O)N3CCCc4ccccc43)n2-c2ccccc2)cc1,-9,-1%,-0.6,x,25,17,-3.4,2.1
Cc1ccc(CCNC(=O)C2CCN(S(=O)(=O)c3ccc4nc5c(c(C(=O)O)c4c3)CCCC5)CC2)cc1,-3,x,-0.5,1.4,-7,-3,2.9,-4.4
CCOc1ccc2oc(C(=O)OCC(=O)NC3CC3)c(C)c2c1,2,-6%,1.7,-1.8,-14,26,3.2,0.1
Cc1nc(NCCc2ccc(F)cc2)c2nnn(Cc3ccccc3)c2n1,-4,-7%,0.9,-4.0,2,-3,-0.7,3.2
COc1cc2c(cc1O)[C@H](Cc1ccc(Oc3cc(C[C@@H]4NCCc5cc(OC)c(O)cc54)ccc3O)cc1)NCC2,4,6%,1.1,x,12,4,-9.2,-5.6
O=C(CSc1nnc(Cc2cccs2)n1-c1ccccc1)NCc1ccc2c(c1)OCO2,-4,5%,-0.7,x,16,-20,-2.4,2.7
CCNC(=S)NNC(=O)CSc1nc2ccccc2n1C,x,4%,-0.3,-2.5,-15,20,1.4,1.9
COc1ccc(S(=O)(=O)N2CCCCC2)cc1NC(=O)c1ccc(C)cc1,-5,-8%,0.0,-4.4,x,x,x,-58
CNS(=O)(=O)c1cn(CC(=O)N(C)Cc2ccccc2)cc1S(=O)(=O)NC,-9,-3%,0.3,-1.5,-8,-11,1.4,1.2
COc1ccc(OC)c(NC(=O)CSc2n[nH]c(-c3cccnc3)n2)c1,-3,x,0.0,1.7,-19,0,0.0,1.5
COc1cccc(CC(=O)OCc2csc(CC(=O)Nc3ccccc3C)n2)c1,0,-3%,-1.0,2.1,x,x,x,x
CCOc1ccc(S(=O)(=O)N2CCN(Cc3ccc4c(c3)OCO4)CC2)cc1Cl,-1,x,-0.2,-3.1,-8,-31,3.5,-0.4
COC(=O)[C@]1(Cc2ccccc2)N[C@H](CN(C)S(=O)(=O)c2ccc(C)cc2)[C@@H]2C(=O)N(Cc3ccccc3)C(=O)[C@@H]21,22,-11%,-0.4,-0.8,x,x,x,2.2
O=C(CSc1nc2ccccc2o1)Nc1ccc(N2CCOCC2)c(Cl)c1,4,9%,-0.4,x,-11,11,-0.1,-0.2
COC(=O)CC1(c2cccc3ccccc23)C(=O)c2ccccc2C1=O,x,5%,0.4,x,-3,28,-1.2,0.2
O=[N+]([O-])c1ccc(N2CCN(c3ccccc3Cl)CC2)cn1,-2,x,-0.6,-6.4,-10,-1,1.4,-2.1
COc1cc(C(Nc2ccc(S(=O)(=O)N3CCC(C)CC3)cc2)C(=O)NCC2CCCO2)cc(OC)c1OC (stereo not given),-4,u,0.0,x,4,-13,-4.3,x
COc1ccc(NS(=O)(=O)c2cccc(C(=O)NCc3ccccn3)c2)cc1,-4,3%,-0.4,2.0,-5,1,-3.4,2.2
CCOc1cc2[nH]c(=S)n(CCCC(=O)NCc3ccccn3)c(=O)c2cc1OCC,3,x,0.1,-2.7,18,18,2.1,-3.9
Cc1ccn(C(=O)c2ccc(NC(=O)CC(C)C)cc2)n1,-4,x,0.9,x,-6,40,2.6,-0.7
N#C/C(=C/c1ccc(-c2ccc(Br)cc2)o1)C(=O)NC1CCCCC1,-1,x,-1.0,6.9,9,-3,u,-0.4
Cc1cccn2c(=O)c(C=O)c(NCc3ccccc3)nc12,-17,-5%,1.0,-0.3,-1,-6,2.3,0.3
COC(=O)CSc1ccc2nnc(CCNS(=O)(=O)c3ccccc3)n2n1,-1,-11%,0.1,-0.8,-1,2,0.9,-5.2
COn1c(-c2ccccc2)nc2ccc(Cl)cc21,5,-1%,-0.9,x,-9,33,-3.2,-8.3
NS(=O)(=O)c1ccc(NCc2c(F)cccc2Cl)cc1,x,28%,x,x,-20,9,-1.6,x
COCCNc1nc2nonc2nc1N1CCCC1c1nccs1 (stereo not given),6,x,-0.5,-2.6,-2,1,25*,-15
O=c1[nH]c(N2CCCCCC2)nc2ncn(Cc3ccccc3)c12,-3,-6%,0.1,-1.4,4,0,5.2,5.4
CC1CN(C2CCCCC2)c2nc3c(c(=O)n(C)c(=O)n3C)n2C1 (stereo not given),4,-1%,-0.1,x,10,3,3.6,3.4
Cc1cc(N2C(=O)C3C4C=CC(C4)C3C2=O)ccc1Br (stereo not given),x,9%,1.1,x,-7,2,0.8,1.5
CN1C(=O)CC(N2CCN(C(c3ccccc3)c3ccccc3)CC2)C1=O (stereo not given),-8,-8%,0.8,x,-10,0,0.9,-7.1
CCOC(=O)N1CCN(Cc2nc3c(c(=O)n(C)c(=O)n3C)n2Cc2ccccc2C)CC1,-4,8%,-0.4,x,-2,-1,-5.3,2.7
O=C(CNC(=O)c1cccs1)NC1=NCCS1,1,-2%,0.1,0.7,-2,8,3.2,1.9
CCOc1ccc(NC(=O)CNC(=O)c2nn(-c3ccc(OC)cc3)c(=O)c3ccccc23)cc1,8,x,0.7,-0.5,-5,5,5.1,0.4
Cc1cc(C)nc(NC(=NCCc2c[nH]c3ccccc23)NC(=O)Nc2ccc(Cl)c(Cl)c2)n1,9,x,0.3,2.5,62*,-6,1.6,1.4
CCS(=O)(=O)Nc1ccc(C2=NN(S(C)(=O)=O)C(c3cccs3)C2)cc1 (stereo not given),-12,0%,-0.9,-0.3,-16,-11,-0.4,-0.9
N#Cc1c(C(F)(F)F)cc(-c2ccccc2)nc1SCC(=O)Nc1sc2c(c1C#N)CCC2,-4,-10%&-13%,1.2,x,-3,-13,u,-0.8
Nc1cc(=O)[nH]c(=O)n1Cc1ccco1,0,0%,-0.1,x,-14,-6,-0.3,2.5
COc1ccccc1C(C)NS(=O)(=O)c1ccc(Cl)nc1 (stereo not given),-3,-6%,0.0,-1.9,-3,5,-0.4,1.8
Cc1ccc(C(C)NC(=O)Cn2nc(C)c([N+](=O)[O-])c2C)cc1 (stereo not given),2,1%,0.4,x,1,-10,-0.9,3.5
CCN(CC)Cc1c(-c2ccccc2)[nH]c2ccc(C)cc2c1=O,0,21%,0.9,x,-14,33,-1.5,-1.8
COC(=O)N1C(=O)[C@](c2ccc(Cl)cc2)(C(C)C)N1C(=O)OC,0,x,1.0,0.4,-13,-18,3.5,-5.3
COc1ccc(Cl)cc1NC(=O)COC(=O)/C=C/c1c(C)nn(C2CCS(=O)(=O)C2)c1Cl (stereo not given),-5,-2%,0.1,x,0,-5,u,-5.7
C/C(=N/NC(=O)CNC(=O)c1ccccc1F)c1ccc2c(c1)CCCC2,2,3%,-0.4,-0.8,-10,-10,-1.5,0.6
Cc1ccc(N2CC(C(=O)N/N=C/c3cccc([N+](=O)[O-])c3)CC2=O)cc1 (stereo not given),4,6%,0.6,x,10,10,0.6,-0.1
O=C(NCC1CCCO1)C(=O)NCC1CCCN1S(=O)(=O)c1ccccc1 (stereo not given),2,-3%,-0.1,-2.9,-2,1,1.5,4.5
CCN(CC)C(=O)c1cccc(NC(=O)c2ccc3c(=O)n4c(nc3c2)CCC4)c1,1,-9%,0.8,0.3,-1,-1,-0.1,0.5
CCOC(=O)N1CCc2[nH]c3ccc(C)cc3c2C1,-7,x,0.0,-1.9,4,-6,-0.1,-1.2
CC(C)(C)SC(=O)C[C@@H]1NS(=O)(=O)OC2CCCCC21 (stereo not given in full),-9,x,0.4,-1.6,13,-7,2.8,-2.9
Cc1ccc(C(=O)NNC(=O)Cc2cccs2)cc1,-10,16%,0.2,x,-10,4,u,-1.4
CCN1CCN(c2cc(C)c3cc(NC(=S)N4CCOCC4)ccc3n2)CC1,-6,-3%,0.2,3.9,6,4,u,-5.5
Cc1ccc(S(=O)(=O)N2CCN(CC(=O)N/N=C/c3ccc(C)o3)CC2)cc1,-5,x,2.3,x,5,-6,4.7,8.5
Cc1cccc(OCC(=O)NNC(=O)c2ccc([N+](=O)[O-])cc2)c1,0,-7%,1.0,-1.1,-5,-6,0.3,-4.7
O=C(Nc1nc2ccccc2[nH]1)C12CC3CC(CC(C3)C1)C2,24,11%,-1.1,x,31,0,3.6,0.5
Cc1cc(NC(=O)CSc2nc3ccccc3n2CCC#N)no1,-6,1%,0.5,-0.4,-14,10,-1.0,-10
O=C(CN(CCc1ccccc1)C(=O)CNS(=O)(=O)c1ccccc1)NCC1CCCO1 (stereo not given),-5,3%,0.1,x,5,-3,4.6,-2.2
CC(Sc1nnnn1C)C(=O)Nc1ncc(Cl)cc1Cl (stereo not given),-2,x,0.0,-4.0,x,x,x,1.2
CC(NC(=O)c1cccnc1)C(c1ccccc1)N1CCN(C)CC1 (stereo not given),-4,-2%,-0.1,-19,-8,-2,7.3,0.2

# Other structures follow:
SMILES,Beta cell apopt,Vif TR-FRET,Bfl-1 A1 inh,MLL AF4-AF9 inh,T cruzi repl,Calb FLC,RanGTP-Impb inh,LANA-H2B inh
Cc1cc(Br)ccc1SCC(=O)OCC(=O)Nc1ccccc1C#N,-7,x,-0.9,x,3,10,2.8,-2.9
O=C(COC(=O)c1ccc(OC(F)F)cc1)NCCC1=CCCCC1,0,4%,-0.3,-1.2,x,x,x,2.2
O=C(COC(=O)COc1ccc(Br)cc1)Nc1cccnc1Cl,0,3%,0.1,-1.1,-1,u,1.1,-0.2
COc1ccc(C2=NOC(Cn3nc(C(=O)NCc4cccs4)cc3-c3ccccc3)C2)cc1 (stereo not given),3,x,0.5,0.4,18,14,0.3,-1.0
CC(=O)Nc1ccc(NC(=O)CSc2nnc(-c3ccc(NS(C)(=O)=O)cc3)n2C)cc1C,-5,18%,0.3,0.2,-6,-9,-2.6,-1.3
COc1ccc(Cc2nc3ccc(C(=O)N4CCCN(C=O)CC4)cc3o2)cc1,-4,x,1.1,-2.0,12,8,2.1,1.4
CCCN(C(=O)CCOc1ccc(C(C)(C)C)cc1)c1c(N)n(Cc2ccccc2)c(=O)[nH]c1=O,x,7%,0.0,0.8,-5,13,5.0,1.1

# Not a hit list (roughly 4.3% active in at least one column).
